RVFV N-RNA FP – RVFV nucleocapsid-RNA interaction inhibition; AID 651828; P21700; hit rate 0.1% among 20,000; RVFV N-RNA binding, fluorescence polarization; stronger effect = lower value; % bound, % (concentration not given with the values);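 active = between 0 and 58% in either replicate with normal brightness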;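 note: 100 nL library stock added to about 12 µL; 100% = protein and probe without compound and 0% = probe alone; numbers are from one replicate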
Target sequence (P21700 whole entry, looked up): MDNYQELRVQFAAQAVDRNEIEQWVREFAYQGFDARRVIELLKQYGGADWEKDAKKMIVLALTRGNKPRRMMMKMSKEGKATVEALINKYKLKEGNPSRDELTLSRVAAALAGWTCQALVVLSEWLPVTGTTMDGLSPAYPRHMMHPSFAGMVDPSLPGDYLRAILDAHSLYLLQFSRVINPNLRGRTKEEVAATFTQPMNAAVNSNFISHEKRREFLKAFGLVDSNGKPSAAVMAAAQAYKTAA
Numbers without * were called inactive; & = joins results of further samples.

SMILES	RVFV N-RNA FP
CC1CN(c2ccc(NS(=O)(=O)c3ccccc3)cc2C(=O)O)CC(C)O1 (stereo not drawn)	94
CCOc1ccc(NC(=O)C2CC2)cc1	104
N/C(=N\OC(=O)Cc1cccs1)c1ccccc1	93
CC1=C(C)OC(C)(C(=O)/C=C/c2ccccc2)CC1 (stereo not drawn)	98
O=C(N/N=C/c1ccccc1)C1COc2ccccc2O1 (stereo not drawn)	89
C#C[C@]1(O)CC[C@H]2[C@@H]3CCc4cc(O)ccc4[C@H]3CC[C@@]21C	95
CCNC(=S)Nc1ccccc1	90
CC(C)Oc1cccc(C(=O)N2CCCCC2)c1	93
CN(C)S(=O)(=O)N(Cc1ccc(Br)cc1)c1ccccc1	105
Cn1c(=S)oc2ccccc21	98
Cc1cc(S(=O)(=O)/N=C/N(C)C)c(C)cc1Cl	93
OCCNC(=S)NC1CC2C=CC1C2 (stereo not drawn)	98
CN(C)C(=O)CSc1nc2ccc(C(=O)c3ccccc3)cc2[nH]1	95
C/C(=N\NC(=O)c1ccc(Br)o1)c1ccc(N)cc1	83
CC(CCN1CCN(C)CC1)c1ccccc1 (stereo not drawn)	94
Cc1ccc(NC(=O)CSc2ccnc(=O)[nH]2)cc1	95
CC(C)(C)c1cc(N)ncn1	102
O=C(Nc1ccccc1)Nc1cc(-c2ccccc2)[nH]n1	91
CCOc1ccc2nc(N(Cc3ccccc3)C(=O)c3ccco3)sc2c1	96
CC1=CCC2COC(c3ccccn3)C1C2 (stereo not drawn)	92
O=C(Nc1ccccc1)C(=S)N1CCCC1	93
N#Cc1c(-n2cccc2C#N)sc2c1CCCC2	89
Oc1ccccc1-c1nc(N2CCCC2)c2ccccc2n1	97
CCC(=O)Nc1ccc2nn(-c3ccc(CC)cc3)nc2c1	90
Clc1cc(I)cc(Cl)c1NC1=NCCN1	95

Reprinted from the part before: 2 entries, followed by the next part.
SMILES	RVFV N-RNA FP
CCC(=O)Nc1ccc2nn(-c3ccc(CC)cc3)nc2c1	90
Clc1cc(I)cc(Cl)c1NC1=NCCN1	95
Cc1cc(SCC(N)=O)nc(=O)[nH]1	89
Cc1ccc(N(C(C)C(=O)Nc2ccc(S(=O)(=O)N3CCOCC3)cc2)S(C)(=O)=O)cc1C (stereo not drawn)	96
COCc1cc(=O)[nH]c(/N=C(\N)Nc2ccc(C)cc2)n1	103
C=CCN(CC=C)S(=O)(=O)c1ccc(C(=O)Nc2nnc(-c3ccc(OC)cc3OC)o2)cc1	92
Cc1c(Br)sc2sc(Br)c(C)c12	105
Cc1ccc(NNC(=O)c2cccs2)cc1C	92
Cc1onc(-c2ccccc2Cl)c1C(=O)Nc1nnc(SCC(=O)Nc2ccccc2F)s1	99
Cc1onc(-c2ccccc2Cl)c1C(=O)NN	105
Nc1[nH]c(=O)ncc1F	94
NC(=O)c1cnccn1	93&91
C=CCNC(=S)Nc1ccc(C)cc1OC(F)F	98
O=C1NC(=O)c2c1c(-c1ccccc1Cl)cc1[nH]c3ccc(O)cc3c21	106
Cc1nc(-c2ccc(S(=O)(=O)N3CCCN(CCc4ccccc4)CC3)s2)cs1	99
CN(C)c1ccc(CN2CCN(Cc3ccccc3)CC2)cc1	101
O=C1CN(C(=O)c2ccccc2)C(=O)CN1C(=O)c1ccccc1	97
CC1CCC(N2CCCC(CO)C2)CC1 (stereo not drawn)	89
CCOc1ccc(Nc2nc3ccccc3nc2Nc2ccc(OCC)cc2)cc1	101
COc1cccc(C=C2C(=O)N(C)C(=S)N(C)C2=O)c1OC	93
CCOC(=O)CN=C1NC(=O)C(c2ccccc2)(c2ccccc2)N1	96
COC(=O)C1=C(C)N(Cc2cccnc2)C(=O)/C1=C\c1ccc(OC)cc1OC	101
COC(=O)CNC(=O)c1cc2cc(Cl)ccc2oc1=O	92
COCCn1c(-c2ccccc2)nc(=S)c2c1CCCC2	110
Cc1ccc(S(=O)(=O)N(C)C(F)F)cc1	93
C#CCOC(=O)Nc1c(-c2ccccc2)noc1C	101
Cc1ccc2nc(-c3ccccn3)cc(C(=O)NCc3cnn(C)c3)c2c1	100
O=C(Nc1ccc(N2CCOCC2)c2nonc12)c1cccs1	111
CC(C)CC(=O)Nc1c(C(=O)Nc2cccc(F)c2)oc2ccccc12	109
N#Cc1c(F)cccc1N1CCC(C(N)=O)CC1	88
CCC(=O)Nc1ccccc1C(=O)N1CCCCC1	97
CCC(=O)c1c(O)n(C)c(=O)n(C)c1=O	87
CCOC(=O)N1CCN(Cn2nc(COc3ccc(C4CCCCC4)cc3)n(C)c2=S)CC1	102
CC(CCc1ccccc1)NCC(O)c1ccc(O)c(C(N)=O)c1 (stereo not drawn)	95&95
NNC(=O)c1cc(COc2cc(Cl)cc(Cl)c2)on1	83
CSc1nsc(SCc2ccc(F)cc2)n1	86
Cc1nc(S(=O)(=O)NCc2ccc(-c3cccs3)cc2)cn1C	100
O=S(=O)(Cc1ccccc1Cl)N1CCOCC1	92
CCOC(=O)C1=C(C)NC(=S)N(C=O)C1c1ccccc1 (stereo not drawn)	96
CC(=O)Nc1ccc2c(c1)CCCN2C(=O)c1cccs1	91
N#Cc1cc2c(nc1SCC(=O)Nc1ccc(S(=O)(=O)Nc3ncccn3)cc1)CCC2	95
Cc1nn(-c2ccccc2)c2sc(C(=O)NC(=S)NCc3ccco3)cc12	99
CCC(=O)NCCc1csc2nc(-c3ccc(Cl)cc3)nn12	91
COc1ccc(CN2CCc3cc(OC)c(OC)cc3C2)cc1O	103
C1=CC(=C2SCCS2)C=C1	95
O=c1[nH]cnc2[nH]ncc12	98&95
COc1ccc(CNC(=O)c2ccc3c(c2)OCCO3)cc1	100
CCN(C(=O)CSc1nnc(COc2ccccc2)o1)c1ccccc1	100
Cc1cc(Br)c2c(c1)/C(=C1/SC(=S)N(N)C1=O)C(=O)N2C	102
COc1ccc(C(=O)/C=C/Sc2nccc(C)n2)cc1	95
O=C(CSc1nnc(-c2cccs2)n1Cc1ccco1)Nc1ccc2c(c1)OCO2	94
Cn1c(/C=C/N2CCOCC2)c(C(=O)c2ccc(Br)cc2)c(=O)n(C)c1=O	98

(listing goes on)
SMILES	RVFV N-RNA FP
Cc1cc(C)c2c3c(sc2n1)C1(CCSCC1)C(C#N)=C(N)O3	89
CNC(=S)NCc1ccc(Cl)cc1	94
O=C(CC1(O)C(=O)N(CN2CCOCC2)c2ccccc21)c1ccccc1 (stereo not drawn)	109
Cc1ncc2n1-c1ccc(Cl)cc1C(c1ccccc1F)=NC2	98
Cc1occc1C(=O)N=Nc1cc(C(C)(C)C)c(O)c(C(C)(C)C)c1	88
Clc1ccc(-c2csc(-c3ccno3)n2)cc1Cl	92
COc1ccccc1Oc1ccc(N/C=C/C(=O)c2ccc(C)o2)cc1	96
COCC(=O)Nc1ccc(S(=O)(=O)NC(C)(C)C)cc1	99
CC(C)[C@H]1CN[C@H](C(=O)O)[C@H]1CC(=O)O	98
CCOC(=O)/C(C#N)=N/Nc1cc(C(N)=O)c(Cl)cc1Cl	111
N#CC(C(=O)COc1ccccc1)c1ccccc1 (stereo not drawn)	96
Cn1cnnc1SCc1cc(=O)c(OCc2cccc(F)c2)co1	99
COCC(=O)Nc1c(C(=O)Nc2ccc(C)c(C)c2)oc2ccccc12	97
Cc1ccc(SC(C)C(=O)Nn2cnnc2)cc1 (stereo not drawn)	100
COC(=O)c1ccccc1NC(=O)NC(C)(C)C	98
CSC1=NCCN1S(=O)(=O)c1ccccc1	94
O=C(NCCN1CCOCC1)c1ccc(I)cc1	89
CSc1sc(SC)c(COC(C)=O)c1COC(C)=O	97
CCOc1ccc(/C=C/C(=O)N(C)Cc2ccccc2)cc1OC	96
CC(C)(C)C(=O)Nc1ccc2nn(-c3ccccc3)nc2c1	91
COc1ccc(Nc2nc(NCCCC(C)C)nc(OC)n2)c(OC)c1	101
c1ccc2c(c1)CCN(Cc1ccsc1)C2	109
CSC1=NCCN1C(=O)C12CC3CC(CC(C3)C1)C2	97
Cc1c(C)c2ccc(OC(=O)c3cccs3)cc2oc1=O	106
CC(=O)Oc1c(-c2ccco2)oc2ccccc2c1=O	98
Cn1ncc(S(=O)(=O)Cc2ccccc2)c(Cl)c1=O	96
Cc1ccc(-c2cc(C(=O)NCCN(C)C)c3cc(Br)ccc3n2)o1	99
CC(C)(C)c1cc(C(F)(F)F)c(C#N)c(SCC#N)n1	92
CN(C)/C=C(\C#N)c1ccccn1	96
COc1ccc(C/C(C)=N/NC(N)=O)cc1OC	94
COCC(C)NCc1ccc2ccccc2c1 (stereo not drawn)	91
O=c1ccnc(SCc2ccc(Cl)cc2)[nH]1	90
CC(C)(C)OC(=O)/C(C#N)=C/C1CCCCC1	92
CC(C)(C)c1ccc(C(=O)CCCN2CCC(OC(c3ccccc3)c3ccccc3)CC2)cc1	92
Cc1nc(C(F)(F)F)ccc1C(=O)N1CCSCC1	90
C(=N\n1cnnc1)/c1cccc(/C=N/n2cnnc2)c1	107
CCCc1cc(NCC2CCCO2)n2c(nc3ccccc32)c1C#N (stereo not drawn)	95
O=C(Nc1ccccc1C(F)(F)F)C1CCC1	97
CON=C(C(=O)N[C@@H]1C(=O)N2C(C(=O)O)=C(COC(N)=O)CS[C@H]12)c1ccco1	98
CCOc1nc(SC)nc2sc3c(c12)CC(C)(C)OC3	98
CN1C(=O)NC(=O)/C(=C/c2ccc(F)cc2)C1=O	91
CN(C)c1ccc(/C=C2/SC(=O)N(CCN=C3NS(=O)(=O)c4ccccc43)C2=O)cc1	115
CN(C)CCCN1CNC(=S)NC1	95
CC(C)COC1C(=O)CCCC1CC(=O)O (stereo not drawn)	97
CCN1C(=O)CC(NC2CCN(C(=O)c3cccs3)CC2)C1=O (stereo not drawn)	93
CC(C)(CO)N=Cc1c(O)[nH]c2ccccc12	94
CCOc1ccc(NC(=O)C2CC(=O)OC2c2ccccc2)cc1 (stereo not drawn)	99
NS(=O)(=O)c1ccc(NC(=O)N2CCCCC2)cc1	89
COc1c(F)c(F)c(C(=O)Nc2ccc(-c3nc4ccccc4o3)cc2)c(F)c1F	94
Clc1ccc(OCCn2ccnc2)c(Br)c1	101

(next part)
SMILES	RVFV N-RNA FP
COC(=O)c1sc(SC)c(C#N)c1-c1ccc(Br)s1	89
CN(C)CCn1c2c(c(SCC(=O)NCc3ccccc3)nc1=O)CCCC2	100
O=S(=O)(c1ccc(F)cc1)N1CCc2[nH]c3ccc(F)cc3c2C1	102
O=C(CSc1nc(N2CCOCC2)nc(N2CCOCC2)n1)c1ccccc1	99
CC(=O)N1CCN(c2ccccc2NC(=S)NC(=O)CC(C)C)CC1	106
Cc1ccc2nc(SCC(=O)N3CCc4ccccc43)nc(=O)n2c1	95
O=c1c(Oc2ccccc2)c(C(F)(F)F)oc2c(O)c(O)ccc12	90
CCNC(=O)c1ccc(NS(C)(=O)=O)cc1	97
CC(C)=C1C2C=CC1C1C(=O)N(c3ccccc3)C(=O)C21 (stereo not drawn)	101
CCC(C)c1ccc(NC(=S)N2CCN(S(C)(=O)=O)CC2)cc1 (stereo not drawn)	95
CCC(C)(C)NS(=O)(=O)Cc1ccccc1	99
CC(C)c1ccc(N/C=C2/CCCCC2=O)cc1	94
CCC(=O)Nn1cnc2c(cnn2-c2ccccc2)c1=O	92
CC(C)Cn1c(=O)[nH]c2ccccc21	85
CCOc1ccccc1-c1noc(-c2cccc(OC)c2)n1	91
COc1ccc(CCNS(=O)(=O)c2ccc(C)cc2)cc1OC	113
C=CC(=O)NC1(CCC)CCCCC1	99
O=C(O)CSC(=S)N1CCCC1	96
C=C(C)Cn1c(CCn2c3ccccc3c3ccccc32)nnc1SCC(=O)OC	97
Cn1nnnc1SCc1ccc(C(=O)Nc2ccc(Br)cc2)cc1	97
Cc1cc2cc(CNS(=O)(=O)c3ccc(Cl)cc3)ccc2n1C	94
CCc1cc(=O)oc2cc(O)cc(O)c12	107
Cc1cc(C)nc(NC2=NCC(=O)N2c2ccc(Oc3ccccc3)cc2)n1	95
Cc1cn[nH]c1	110
Cc1ccc(Cl)cc1NC(=O)c1cc(NC(=O)C2CC=CCC2C(=O)O)ccc1N1CCOCC1 (stereo not drawn)	101

Some of these compounds in order of molar mass, low to high:
SMILES	RVFV N-RNA FP
CCc1cc(=O)oc2cc(O)cc(O)c12	107
CC(C)=C1C2C=CC1C1C(=O)N(c3ccccc3)C(=O)C21 (stereo not drawn)	101
CCOc1ccccc1-c1noc(-c2cccc(OC)c2)n1	91
O=c1c(Oc2ccccc2)c(C(F)(F)F)oc2c(O)c(O)ccc12	90

Next section.
SMILES	RVFV N-RNA FP
NCCc1cnc[nH]1	93
COC(=O)COc1cccc(NC(=O)c2ccccc2F)c1	96
Cc1cc(C)cc(OCCCCn2cncn2)c1	92
O=C(CSc1nnc(Cc2cccs2)n1Cc1ccco1)Nc1ccc(Br)cc1	96
CC(C)(CC(=O)O)CC(=O)N1CCCN(c2nccc(C(F)(F)F)n2)CC1	106
O=C(Nc1cccc(C(F)(F)F)c1)C1CC(c2ccccc2O)=NO1 (stereo not drawn)	93
O=P(O)(O)C(O)(Cn1ccnc1)P(=O)(O)O	96

An excerpt. The share of hits here may be higher or lower than overall.
